Screening data from PubChem.
KCNQ2 block: KCNQ2 channel blockers in CHO-K1 cells – cell-based, FluxOR thallium flux, B-score, primary screen (AID 2156) | actives 1.1% (n = 310,000) | O88943 | 20 min; hits give low values; only compounds with negative scores are shown here; some inactives read as strong as hits | B-score at 10 µM;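 active = fluorescence ratio B-score at most minus 3 library SDs, with starting brightness B-score within 2 library SDs, cut at about -5.5 in these data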
Target sequence (O88943 whole entry, looked up): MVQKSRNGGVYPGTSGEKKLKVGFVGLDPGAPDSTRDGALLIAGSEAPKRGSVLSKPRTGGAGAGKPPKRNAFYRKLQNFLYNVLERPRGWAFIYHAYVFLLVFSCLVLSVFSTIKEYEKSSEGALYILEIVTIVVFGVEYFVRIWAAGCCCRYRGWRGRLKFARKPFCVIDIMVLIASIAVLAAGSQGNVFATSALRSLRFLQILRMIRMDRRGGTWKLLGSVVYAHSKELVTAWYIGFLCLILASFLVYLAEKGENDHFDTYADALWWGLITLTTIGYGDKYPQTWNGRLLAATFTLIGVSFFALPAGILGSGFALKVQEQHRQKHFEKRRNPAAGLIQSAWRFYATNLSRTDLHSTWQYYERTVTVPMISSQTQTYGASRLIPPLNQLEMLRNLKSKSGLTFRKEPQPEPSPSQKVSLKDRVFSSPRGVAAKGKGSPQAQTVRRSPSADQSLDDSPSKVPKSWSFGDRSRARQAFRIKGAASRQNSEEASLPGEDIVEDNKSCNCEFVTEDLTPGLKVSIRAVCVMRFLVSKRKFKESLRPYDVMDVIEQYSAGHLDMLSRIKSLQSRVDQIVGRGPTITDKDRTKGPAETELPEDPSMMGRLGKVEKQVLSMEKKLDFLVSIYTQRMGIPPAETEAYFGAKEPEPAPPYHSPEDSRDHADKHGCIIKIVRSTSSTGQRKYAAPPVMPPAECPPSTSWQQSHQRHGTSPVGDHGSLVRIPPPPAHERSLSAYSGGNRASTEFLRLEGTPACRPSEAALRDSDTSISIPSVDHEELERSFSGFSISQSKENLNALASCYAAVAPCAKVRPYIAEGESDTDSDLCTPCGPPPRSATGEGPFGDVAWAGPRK
KCNQ2 block baseline: also measured in KCNQ2 block; calls as there; B-score; measured here: initial fluorescence intensity artifact check;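 brightness before thallium and not channel activity; 0 = typical well and far values either way flag optical interference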
Numbers without * were called inactive; i = inactive. Some of the compounds tested; rates above refer to the full screens.

SMILES | KCNQ2 block | KCNQ2 block baseline
COc1cc(S(=O)(=O)N2CCC(c3nc4ccccc4s3)CC2)ccc1S(=O)(=O)N1CC(C)CC(C)C1 (stereo not drawn) | i | -1.9
O=c1c2ccccc2cnn1Cc1n[nH]c(=S)n1-c1ccc(Cl)cc1Cl | i | 0.22
CCOc1ccc(NC(=O)c2nn(C)c(C(=O)Nc3ccc(OCC)cc3)c2[N+](=O)[O-])cc1 | i | 1.4
CCCCCCNC(=O)c1cc(S(=O)(=O)N2CCc3ccccc32)ccc1F | i | -0.88
Cc1cccc(NS(=O)(=O)c2ccc3c(c2)CCN3C(=O)CCC(=O)O)c1 | i | 1.1
Cc1ccc(N2C(=O)C3C4C=CC(CNC(=S)N5CCN(c6ccccn6)CC5)(O4)C3C2=O)cc1 (stereo not drawn) | i | -1.1
COC(CNS(=O)(=O)c1ccc(Cl)cc1)c1ccccc1 (stereo not drawn) | i | -0.49
COc1cccc(NC(=O)CN(C)C(=O)c2cn(-c3ccccc3)nc2-c2cccs2)c1 | i | -1.4
CC1CCC/C=C/C(=O)c2c(O)cc(O)cc2CC(=O)O1 (stereo not drawn) | i | 1.1
COc1ccc(C(=O)Cn2c(=O)c(CCC(=O)O)nn3c4ccccc4nc23)cc1OC | i | -0.64
O=C(COC(=O)[C@H](Cc1ccccc1)NS(=O)(=O)c1ccccc1F)NC1CCCCC1 | i | -2.2
Clc1ccc(-c2nn3c(C4COc5ccccc5O4)nnc3s2)cc1 (stereo not drawn) | i | 0.09
CCC(C)c1nc2ccsc2c(N2CCOC2=O)c1-c1ccccc1 (stereo not drawn) | i | 1.7
CCN1C(=O)C(CC(=O)Nc2ccc(OC)cc2)N(Cc2ccco2)C1=S (stereo not drawn) | i | 0.86
Cc1nnc(SCC(=O)Nc2ccc(Br)cn2)[nH]c1=O | i | -0.11
Clc1cc(CSc2ccccc2)nc(-c2ccccc2)n1 | i | 1.1
Cc1ccc(NC(=O)C(C)N=C2NS(=O)(=O)c3ccccc32)cc1F (stereo not drawn) | i | -0.18
c1ccc(N2CCN(Cc3nnnn3C3CCCCC3)CC2)cc1 | i | 0.07
CCc1nn(C(C)C(=O)NCc2ccc(Cl)cc2)c(=O)c2cc3occc3n12 (stereo not drawn) | i | -0.02
COc1ccc(NC(=O)CSc2nc3ccsc3c(=O)n2CCCCCC(=O)O)cc1 | i | -0.15
COc1ccc(S(=O)(=O)N2CCC(C(N)=O)CC2)cc1 | i | -1
COC(=O)c1ccccc1NC(=O)CN(c1ccc(OC)cc1)S(C)(=O)=O | i | 0.49
O=C(CCN1CCCCC1)c1ccccc1 | i | -0.09
O=C(c1cc(-c2ccncc2)nc2ccc(Br)cc12)N1CCN(Cc2ccc3c(c2)OCO3)CC1 | i | -1.6
Clc1ccc(-c2cc(C3CCNCC3)[nH]n2)cc1 | i | -0.68
COc1ccc(-n2c(SCC(=O)Nc3ccc(C(N)=O)cc3)nc3c([nH]c4ccccc43)c2=O)cc1OC | i | 3.7
COc1ccccc1NC(=O)c1cccc2c(Br)cccc12 | i | 0.49
N#CCSc1nc2c(sc(=S)n2Cc2ccco2)c(=O)n1-c1ccc(F)cc1 | i | 4.4
COCc1cc(C)nc(SCc2ccc(Cl)cc2)c1C#N | i | -1
CCCCCC(=O)Nc1nc2ccccc2[nH]1 | i | -2.3
O=C(COc1ccc(Cl)cc1Cl)NCCCCc1ccccc1 | -7.8* | 1.8*
COc1ccc(NC2CCCN(C(=O)CSc3ccccc3)C2)cc1OC (stereo not drawn) | i | -0.01
N#C/C(=C(/O)COC(=O)CSc1ccc(Cl)cc1)c1nc2ccccc2[nH]1 | i | 0.53
CCCN(CCC)S(=O)(=O)c1cccc(-c2csc(C)n2)c1 | i | 1.2
CCOC(=O)c1c(C)nc2ccccc2c1-c1ccccc1 | i | 0.01
COc1ccc(CC(=O)Nc2cc(C)on2)cc1OC | i | -1.2
COc1cccc(NC(=S)NCCC(c2ccccc2)c2ccccc2)c1 | i | -1.3
CCn1c(SCC(=O)NC2CCCCC2)nnc1-c1ccccn1 | i | 0.21
COc1cc(/C=C/C(=O)c2ccc(Cl)s2)cc(OC)c1O | i | -0.32
Cc1oc(-c2ccccc2F)nc1CS(=O)(=O)CC(=O)NCCN1CCCC1 | i | 0.15
CCCCCn1c(=O)[nH]c2cc(C(=O)NCCN3CCCCC3C)ccc2c1=O (stereo not drawn) | i | -0.32
CCOCCOC(=O)Cn1cnc2scc(-c3ccc(C)cc3)c2c1=O | i | -0.24
CC(C)NC(=O)CN1C(=O)NC(CCc2ccccc2)C1=O (stereo not drawn) | i | 0.9
O=C(NCCCn1ccnc1)c1cccnc1 | i | 0.41
CCC(=O)N1c2ccccc2NC2=C(C(=O)CCC2)C1c1ccc(N(C)C)cc1 (stereo not drawn) | i | 1.3
Cn1ncc([N+](=O)[O-])c1C(=O)Nc1ccccc1Cl | i | 0.07
Cc1ccccc1-c1nc(CN2CCC(C(=O)NC3CC3)CC2)c(C)o1 | i | -0.95
Cc1cccc2c1-c1sc(C(=O)NCCCN3CCc4ccccc4C3)cc1CO2 | i | 0.04
O=C(NCc1nc2ccccc2[nH]1)C1=C[C@H](c2csc3ccccc23)C[C@H](OCc2ccc(CO)cc2)O1 | i | 2.1
CC(C)(C)Cc1nc2ccccc2n1CCc1ccccc1 | i | 0.52

3 structures already listed, arranged by SMILES length, smallest number first:
SMILES | KCNQ2 block | KCNQ2 block baseline
Cn1ncc([N+](=O)[O-])c1C(=O)Nc1ccccc1Cl | i | 0.07
CCC(=O)N1c2ccccc2NC2=C(C(=O)CCC2)C1c1ccc(N(C)C)cc1 (stereo not drawn) | i | 1.3
COc1ccc(-n2c(SCC(=O)Nc3ccc(C(N)=O)cc3)nc3c([nH]c4ccccc43)c2=O)cc1OC | i | 3.7

The results go on:
SMILES | KCNQ2 block | KCNQ2 block baseline
COc1ccc(-c2nc3c(c(=O)[nH]c(=O)n3Cc3ccccc3)n2CCO)cc1 | i | 1
Clc1ccc(Cn2c(-c3cccnc3Cl)nc3ccccc32)c(Cl)c1 | i | -0.58
CSc1cccc(NC(=S)N(C(C)C)C(C)c2ccccn2)c1 (stereo not drawn) | i | -1.9
CC1(C)CC(=O)C2=C(C1)c1c(ccc3ccccc13)NC2c1ccc(C(=O)O)cc1 (stereo not drawn) | i | -0.05
O=S(=O)(Nc1cccc(-c2cn3c(n2)SCC3)c1)c1ccc(F)cc1F | i | -2.3
C=CCNC(=S)N/N=C/c1ccccc1OCCOc1ccccc1 | i | 1
CN(NC(=O)/C=C/C(=O)O)c1ncc(C(F)(F)F)cc1Cl | i | 0.26
Cc1cccc(NC(=O)CSc2nnc(NC(=O)c3ccc(S(=O)(=O)N4CCOCC4)cc3)s2)c1C | i | -0.21
Cc1ccc(OCCCCn2ccnc2C)c(C)c1 | i | 0.06
c1ccc(CN2CCN(c3nc4ccccc4c4ccccc34)CC2)cc1 | i | 1.2
CCCCSc1nnc2c(n1)OC(C(=O)c1ccccc1)Nc1ccccc1-2 (stereo not drawn) | i | 0.07
Cc1ccc(S(=O)(=O)NC2CCCc3ccccc32)cc1C (stereo not drawn) | i | 1.2
CCCCn1c(=O)c(C(=O)c2ccccc2)nc2ccccc21 | i | 0.72
COc1ccc(C(=O)N2CCC(C(=O)c3c(C)cc(C)cc3C)CC2)cc1 | i | 0.83
COc1cc(/C=C2\SC(=Nc3ccc(O)cc3)NC2=O)cc(OC)c1OC | i | 2.4
Clc1ccc(-c2nc3ccccn3c2CN2CCOCC2)cc1 | i | -0.01
COc1ccc(S(=O)(=O)NCC(=O)N(CC(=O)NCc2ccco2)C2CCCC2)cc1 | i | -0.86
O=C(COc1ccc(Cl)cc1Cl)Nn1c(=S)[nH]c2ncccc2c1=O | i | 1.9
Cc1cccnc1NC(=S)Nc1ccc(Br)cc1Cl | i | 0.25
Cn1cccc1/C=N/N1CCN(c2ccccc2)CC1 | i | 1.2
CSc1ccc(-c2nc(CN(C)C3CCOC3)c(C)o2)cc1 (stereo not drawn) | i | -0.03
Cc1ccc(C)c(-n2[nH]c3c4c(ccc3c2=O)C(=O)c2ccccc2C4=O)c1 | i | -0.11
Cc1cc(CN(C)Cc2c(C(=O)N3CCCCCCC3)nc3ccc(Cl)cn23)n[nH]1 | i | -0.6
Cc1cccc(NC(=O)CSc2nnc(-c3ccccc3C)o2)c1 | i | -0.2
C/C(CC(=O)Nc1c(C)cc(C)cc1C)=N\NC(=O)c1cnccn1 | i | 1.8

Reformatted with values ahead of the structure: entries from further up.
KCNQ2 block,KCNQ2 block baseline,mol
i,-0.6,Cc1cc(CN(C)Cc2c(C(=O)N3CCCCCCC3)nc3ccc(Cl)cn23)n[nH]1
i,-0.2,Cc1cccc(NC(=O)CSc2nnc(-c3ccccc3C)o2)c1
i,1.8,C/C(CC(=O)Nc1c(C)cc(C)cc1C)=N\NC(=O)c1cnccn1

Quoted at random: 2 records from the list, in no set order.
SMILES | KCNQ2 block | KCNQ2 block baseline
COc1ccc(-c2nc3c(c(=O)[nH]c(=O)n3Cc3ccccc3)n2CCO)cc1 | i | 1
COc1ccc(S(=O)(=O)NCC(=O)N(CC(=O)NCc2ccco2)C2CCCC2)cc1 | i | -0.86

(cont.)
SMILES | KCNQ2 block | KCNQ2 block baseline
CCc1ccc(CN(C)C(=O)c2cc(COc3ccc(OC)cc3Cl)on2)nc1 | i | -0.35
CN(C(=O)CSc1nnc(CNC(=O)c2ccccc2)o1)c1ccccc1 | i | 0.31
CN(C)S(=O)(=O)c1cccc(NC(=O)CSc2nc3ccccc3[nH]2)c1 | i | 1.1
CC(C)OCCCNC(=S)N1CCC(C(=O)c2ccc3c(c2)OCCO3)CC1 | i | 0.17
CC(=O)N1CC(=O)N(Cc2ccccc2)/C(=C/c2ccccc2)C1=O | i | -1.6
O=[N+]([O-])c1cc(Oc2cccnc2)cc([N+](=O)[O-])c1 | i | 0.21
CCn1nc(C(=O)NCc2ccco2)c(Cl)c1Cl | i | 2.6
Cc1ccc(-c2nnc(COC(=O)c3cccs3)o2)cc1 | i | 1.8
CCCCn1c(-c2csc3c2CCCC3)n[nH]c1=S | i | -1.3
Cc1sc(NC(=O)CN2CCOCC2)c(C(=O)c2ccccc2)c1C | i | 2
CCOC(=O)C1CCCN(C2CC(=O)N(c3ccc(C)c(C)c3)C2=O)C1 (stereo not drawn) | i | 0.08
CC(=O)C1=NN(c2ccc(Cl)cc2)C(c2ccc3c(c2)OCO3)N(C(C)=O)N1C (stereo not drawn) | i | 0.98
COc1ccccc1N1CCN(C(=O)c2cc(C(C)(C)C)oc2C)CC1 | i | 0.9
C#CCn1cc(C=C2C(=O)c3ccccc3C2=O)c2ccccc21 | i | 2.4
CCOC(=O)C1=C(C)NC(=O)NC1c1ccc(OC(C)C(=O)O)c(OC)c1 (stereo not drawn) | i | 3.2
Cc1cc(=O)[nH]c(NN)n1 | i | -0.78
CCOC(=O)C1=C(O)C(=O)N(Cc2ccccc2)CC1 | i | 2.1
FC(F)(F)c1cc(Oc2ccc(Cl)cc2)ncc1-c1nnc(-c2ccc(Cl)cc2)o1 | i | -0.22
COc1ccc(-c2cc(C(=O)N3CCN(C(=O)c4ccccc4F)CC3)[nH]n2)cc1 | i | -0.68
CCCCN(C)C(=O)c1cc2c(Cl)nc3ccccc3c2s1 | i | -1.9
CC(C)CNC(=O)c1ccccc1N(Cc1ccccc1)S(C)(=O)=O | i | 2.7
CC(=C\c1ccccc1)/C=C1/SC(=S)N(CCC(=O)Nc2ccccn2)C1=O | i | 0.09
CCc1nn(CCCC(=O)NCc2cc(Br)ccc2OC)c(=O)c2cc3occc3n12 | i | -0.11
CN(C)C(=S)c1ccccc1 | i | 1.8
Fc1ccc(NC(=S)Nc2cccnc2)c(Cl)c1 | i | 0.46
CS(=O)(=O)c1ncc(Cl)c(C(=O)Nc2ccc(N3CCOCC3)cc2)n1 | i | -3.6
Cn1cc(Cl)c(C(=O)NNC(=S)NC2CCCCC2)n1 | i | -0.03
O=C(CCCCCNC(=O)c1ccccc1)N=Nc1c(O)[nH]c2c(Br)cc(Br)cc12 | i | -0.23
Cc1cccc(NC(=O)Cn2nnc3sc4c(c3c2=O)CC(C)(C)OC4)c1 | i | -2.2
c1coc(CNc2nc(N3CCCCC3)nc3ccccc23)c1 | i | -1.2
C=CCn1nnnc1SCC(=O)Nc1ccccc1C(=O)OC | i | 3
Cc1ccc(NC(=O)C2CCCCC2C(=O)O)cc1Cl (stereo not drawn) | i | -0.02
N/C(=N\OS(=O)(=O)c1cccc([N+](=O)[O-])c1)c1ccncc1 | i | -0.39
Cc1ccccc1CSc1ccc(-c2ccc3c(c2)OCO3)nn1 | -5.8* | -0.12*
Nc1nc(-c2ccccc2)cn1/N=C/c1ccccc1 | i | -0.69
Cc1cc(C)n(C(=O)Cn2nc(C)c(Br)c2C)n1 | i | -0.55
Oc1cccc(C(O)CNCc2ccc(OCc3ccc(Cl)cc3Cl)cc2)c1 (stereo not drawn) | i | -2
COc1ccc(OC)c(C2C3=C(N=C4SCC(=O)N42)c2ccccc2CC3)c1 (stereo not drawn) | i | 0.1
CCc1cc(C(=O)NC2CCCc3c2cnn3-c2cccc(C)c2C)n(C)n1 (stereo not drawn) | i | -0.59
CCOc1nc(NCCC2=CCCCC2)nc(N2CCOCC2)n1 | i | -0.42
CCn1cc(NC(=O)CCl)c(C)n1 | i | -0.79
COc1ccc(S(=O)(=O)Nc2nnc(C(C)(C)C)s2)cc1 | i | 1.1
COc1ccc2nc(C)cc(SCC(=O)N/N=C/c3ccc(O)cc3O)c2c1 | i | -3
O=C(NCCC1CCCCN1S(=O)(=O)c1ccccc1)C(=O)Nc1ccc(F)cc1F (stereo not drawn) | i | 0.7
CCOC(=O)C1=C(C(F)(F)F)Nc2ncnn2C1c1cc(OC)ccc1OC (stereo not drawn) | i | 1.7
C/C(=N\Nc1ccccc1)c1cccc(N)c1 | i | 0.93
NS(=O)(=O)c1ccc(OC(=O)CNC(=O)OCc2ccccc2)cc1 | i | -0.28
